High-throughput results from PubChem.
eIF4H inh: inhibitors of RNA binding by human eIF4H; Q15056; eIF4H fluorescence polarization binding assay; inhibition, % at 35 µM; 290,000 tested, 0.94% active;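 active means 50% or more with normal probe brightness, or confirmed in later tests; inconclusive means above 50% with abnormal brightness, or retests that disagree; inactive means below 50% or failed in later tests; about a fifth of its hits are not listed in these tables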;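 further: calls also rest on retests at 20 µM and on dose response follow-up; 0% = protein and probe with vehicle and 100% = probe without protein; strong numbers were not always called active; many hits fall short of the cut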
Env fusion inh: inhibitors of HIV Env-mediated cell fusion. HeLa-JRFL Env/CEM21 cell fusion, luciferase. inhibition, % at 12.3 µM. 360,000 tested, 1.1% active. AID 651610;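 active means mean replicate inhibition score of at least 50 and every replicate individually at or above 50; inconclusive means only one of the two criteria met; inactive means mean below 50 and not all replicates reaching 50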;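 further: 0% = plate neutral controls and 100% = maraviroc near 300 nM; one replicate is shown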
Yeast UUG start: yeast start codon fidelity modulation | S. cerevisiae UUG-firefly luciferase reporter, luminescence/redox ratio | activity score, % at 18.7 µM | 350,000 tested, 0.13% active;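 active means replicate mean at a twofold rise or more, about +100% in these data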;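 further: firefly luciferase made from a UUG start codon reports start codon fidelity; reporter light over untreated wells divided by growth signal over untreated wells; some hits fall short of that in this replicate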
Rce1 inhib: yeast Ras-converting enzyme inhibition; AID 2563; calls only; yeast membranes, quenched prenylated peptide cleavage fluorescence; 290,000 tested, 0.27% active; Q03530;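 active means fall in fluorescence gain of 50% or more versus controls, with final raw signal at or below 3038400; inconclusive means same 50% fall but final raw signal above 3038400; inactive means fall in fluorescence gain under 50%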;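 further: plate controls were neutral control wells for no effect and wells lacking membranes for full effect; tested at 10 µM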
MT1-MMP act inh: MT1-MMP (human) activation inhibition; 360,000 tested, 0.061% active; HT1080 RFP-PRO-GFP cells, GFP/RFP ratio fluorescence, overnight; percent of plate control window, DMSO zero; GFP/RFP ratio change, % at 20 µM; P50281;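 active means GFP/RFP ratio change of at least 30% with cell ATP level not reduced by more than half and red fluorescence within 50% of control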; further: strong numbers were not always called active
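Read-out: GFP/RFP fluorescence ratio; Test system: RFP-PRO-GFP reporter HT1080 cells; Compound dosing: single-point 20 µM compound, 1% DMSO; Times: overnight compound exposure at 37 °C.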
CSC inhib: blocks cancer stem cells; cancer stem cell-like cells viability, luminescence; 300,000 tested, 1.1% active; inhibition, % at 7.5 µM; AID 2717;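 active means mean at 75% or more and at least half the replicates too; inconclusive means mean and replicates disagree; tested in HMLE shEcad cells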;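 further: 0% = median of negative and 100% = median of positive control wells; the first replicate is given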
PABP FP inh: PABP-poly(A) binding inhibition | P11940 | PABP-poly(A) RNA binding, fluorescence polarization | 290,000 tested, 1% active | inhibition, % at 35 µM | AID 2014;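 active means 50% or more with normal probe brightness, or confirmed in later tests; inconclusive means above 50% with abnormal brightness, or retests that disagree; inactive means below 50% or failed in later tests; about a fifth of its hits are not listed in these tables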;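 further: calls also rest on retests at 20 µM and on dose response follow-up; controls were probe without protein and protein plus probe with vehicle; some compounds called inactive have numbers as strong as hits; many hits fall short of the cut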
Target sequence (P11940 whole entry, looked up): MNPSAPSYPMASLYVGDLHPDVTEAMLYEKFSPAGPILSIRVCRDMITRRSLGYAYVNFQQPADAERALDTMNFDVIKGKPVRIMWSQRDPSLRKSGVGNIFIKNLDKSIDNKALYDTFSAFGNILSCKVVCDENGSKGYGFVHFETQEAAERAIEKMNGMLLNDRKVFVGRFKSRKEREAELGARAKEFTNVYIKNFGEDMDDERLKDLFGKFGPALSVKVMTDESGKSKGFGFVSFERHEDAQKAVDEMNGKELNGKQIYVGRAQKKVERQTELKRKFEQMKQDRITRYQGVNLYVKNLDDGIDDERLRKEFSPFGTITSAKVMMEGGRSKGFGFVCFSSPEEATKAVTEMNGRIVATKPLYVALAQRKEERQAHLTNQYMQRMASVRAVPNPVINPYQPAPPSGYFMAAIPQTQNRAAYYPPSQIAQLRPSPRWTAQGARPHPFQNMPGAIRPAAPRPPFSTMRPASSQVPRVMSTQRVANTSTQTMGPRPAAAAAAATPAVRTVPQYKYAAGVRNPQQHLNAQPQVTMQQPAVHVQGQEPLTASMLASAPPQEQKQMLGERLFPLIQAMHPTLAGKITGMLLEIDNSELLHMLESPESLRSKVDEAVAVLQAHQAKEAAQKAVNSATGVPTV
eIF4H inh retest: also measured in eIF4H inh; calls as there; inhibition, %; compound at 20 µM; confirmation average;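 mean of two retest wells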
PABP FP inh retest: second read-out of PABP FP inh, no call of its own (marks repeat the call); inhibition, %; compound at 20 µM; confirmation repeats;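 mean of two retest wells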
MT1-MMP act inh RFP: further read-out of MT1-MMP act inh, marked with its call; RFP signal change, %; measured here: RFP expression control read;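 0 = vehicle wells; hits needed this value within 50% of zero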
The depositor's hits bear a star; i = inactive; ? = inconclusive; nt = not tested or not shown; & = joins results of further samples. An excerpt (hit frequency here may not be typical).

SMILES	eIF4H inh	Env fusion inh	Yeast UUG start	Rce1 inhib	MT1-MMP act inh	MT1-MMP act inh RFP	CSC inhib	PABP FP inh	others
Cc1ccc(NC(=O)C2COc3ccccc3O2)cc1 (configuration not stated)	0	-26	-7	i	0	-4	20	11
COCC(C)NC(C(=O)Nc1ccc(Cl)c([N+](=O)[O-])c1)c1ccccc1 (configuration not stated)	-1	0	-13	i	-4	2	nt	4
CS(=O)(=O)N1CCN(C(=O)c2ccc3c(c2)OCCO3)CC1	-11	-1	3	i	-3	2	nt	-14
CN(C)CCCNC(=O)c1ccccc1Oc1ccccc1	7	-4	-20	nt	3	1	9	15
NC1=NC(=O)/C(=C/c2ccc(-c3ccc(S(N)(=O)=O)cc3)o2)S1	?	-38	-13	i	-16	3	-5	?
COc1ccccc1C(=O)NS(=O)(=O)c1ccc(C)cc1	nt	nt	-3	nt	-2	6	-7	nt
CC1CCCC(NC(=O)COC(=O)c2ccc(Cl)nc2)C1C (configuration not stated)	nt	2	-2	nt	1	4	nt	nt
CCOc1cc(/C=C(\C#N)C(=O)NCc2cccnc2)ccc1O	-9	12	nt	i	-4	-2	-3	-2
c1ccc(CNc2c(C3CCNCC3)nc3scc(-c4ccccc4)n23)cc1	nt	-56	-14	nt	4	5	nt	nt
O=S(=O)(Cc1cc(-c2ccccc2Cl)no1)c1ccccc1	-9	-23	6	i	5	3	-17	-10
Cc1ccc(NC(=O)CNc2ccc(OC(C)C)cc2)c(C)c1	6	-322	-20	i	1	0	-3	4
Cc1cc(Nc2ccccc2)n(C(=O)c2ccccc2)n1	3	0	-22	i	3	-1	3	1
c1ccc(Cc2nnc3sc(-c4cccnc4)nn23)cc1	6	22	-20	i	-1	-6	-26	6
N/C(Cc1ccc(Cl)c(Cl)c1)=N\OC(=O)c1cccs1	-14	-94	-10	i	4	1	-6	-10
Cc1scc(C(=O)N/N=C/c2ccc(Cl)s2)c1C	7	nt	-1	i	3	-1	10	21
CC(=O)Nc1ccc(OCC(O)CN2CCN(c3cccc(Cl)c3)CC2)cc1 (configuration not stated)	-2	18	-17	i	19	1	28	1
Cc1ccc(Oc2cnc3ccccc3n2)cc1	0	-145	-13	i	-10	-1	-11	-2
O=C(c1ccc(COc2ccccc2Br)cc1)N1CCCCCC1	-6	-12	nt	i	0	-6	31	-4
O=C(CCN1C(=O)/C(=C\c2ccccc2)SC1=S)NCCCN1CCOCC1	0	-20	-3	i	-1	2	47	9
CCOc1ccc(CCNC(=O)C2CC=CCC2C(=O)OC(C)C)cc1OCC (configuration not stated)	-4	-8	-8	i	-1	2	10	-10
N#Cc1cncc(-c2ccc3c(c2)OCCOCCOCCOCCOCCO3)n1	0	nt	nt	i	2	5	39	4
CCN(CC)c1ccc(C(=O)N/N=C(\C)c2cccc(OC)c2)cc1	-6	22	nt	i	7	5	24	-3
Cc1ccc(N(C(=O)CCl)C(C(=O)NC2CCCCC2)c2cccnc2)cc1C (configuration not stated)	-2	nt	nt	i	nt	nt	88*	0
CCOc1ncccc1C(=O)OCC(=O)N1CCN(S(=O)(=O)c2ccc(Cl)cc2)CC1	-3	-21	2	i	4	8	-18	1
COc1ccc(OC)c(Nc2nc(NCCC(C)C)nc(N)c2[N+](=O)[O-])c1	-11	-56	nt	i	3	-5	52	-1
COc1ccccc1NC(=O)c1csc2c1CCCC2	-8	-262	-15	i	-2	1	-2	-5
COc1ccccc1NS(=O)(=O)c1ccc2oc(SCC(C)=O)nc2c1	-12	20	6	i	0	-10	2	5
O=C(COC(=O)CNC(=O)c1ccc(Cl)c([N+](=O)[O-])c1)NNC(=O)c1ccccc1F	nt	-2	-2	nt	-1	3	-3	nt
CCN1CCCC1CNC(=O)C(=O)NCCc1ccc(OC)c(OC)c1 (configuration not stated)	-3	10	nt	i	1	4	-5	7
Nc1nc(SCc2nc3scc(-c4cccs4)c3c(=O)[nH]2)n[nH]1	4	nt	-18	i	4	-7	nt	-3
COc1ccc(NC(=O)c2cc(-c3ccco3)nc3ccccc23)cn1	nt	34	-19	nt	-7	3	nt	nt
CNC(=O)c1ccc(NC(=O)Nc2ccccc2)cc1	-10	-23	-11	i	0	0	4	5
Nc1nc2nc(-c3cccs3)cc(C(F)(F)F)n2n1	-14	-9	nt	i	2	5	-1	-2
CC(NC(=O)C1CCN(S(=O)(=O)N2CCCCCC2)CC1)c1ccccc1 (configuration not stated)	-8	11	7	i	2	-6	-13	-1
Cc1ccc(-c2nnc(SCC(=O)N/N=C/c3ccccc3C(=O)O)n2-c2ccccc2)cc1	-2	-21	nt	i	nt	nt	-5	2
CCCOc1cccc(C2/C(=C(/O)c3ccc4c(c3)CC(C)O4)C(=O)C(=O)N2CCN2CCOCC2)c1 (configuration not stated)	-12	-11	-17	i	2	5	-8	-5

3 structures out of the list, ordered by SMILES length, smallest number first:
SMILES	eIF4H inh	Env fusion inh	Yeast UUG start	Rce1 inhib	MT1-MMP act inh	MT1-MMP act inh RFP	CSC inhib	PABP FP inh	others
Nc1nc2nc(-c3cccs3)cc(C(F)(F)F)n2n1	-14	-9	nt	i	2	5	-1	-2
COc1ccccc1NS(=O)(=O)c1ccc2oc(SCC(C)=O)nc2c1	-12	20	6	i	0	-10	2	5
Nc1nc(SCc2nc3scc(-c4cccs4)c3c(=O)[nH]2)n[nH]1	4	nt	-18	i	4	-7	nt	-3

(more compounds)
SMILES	eIF4H inh	Env fusion inh	Yeast UUG start	Rce1 inhib	MT1-MMP act inh	MT1-MMP act inh RFP	CSC inhib	PABP FP inh	others
Cc1cccc(N(C(=O)CNC(=O)c2cccs2)C(C(=O)NC2CCCC2)c2ccncc2)c1 (configuration not stated)	15	14	-8	i	-3	1	nt	-9
CC12CN3CC(C)(CN(C1)C3c1ccc3c(c1)OCO3)C2=O (configuration not stated)	4	nt	nt	i	-2	2	nt	-5
COc1ccc(CNC(=O)Nc2ccc3c(c2)c(=O)n(C)n3Cc2cccc(C(F)(F)F)c2)cc1	nt	4	-14	nt	-3	-21	nt	nt
OC(c1ccccc1)c1nc(/C=C/c2ccccc2)cs1 (configuration not stated)	nt	-47	-9	nt	1	-4	nt	nt
Brc1ccc(N=C/C=C/C=C/Nc2ccc(Br)cc2)cc1	11	19	-15	nt	5	2	59	1
Cc1ccc(N(Cc2cc3cc(C)ccc3[nH]c2=O)S(=O)(=O)c2ccccc2)cc1	-2	2	nt	i	-1	-9	26	-1
COc1ccc2c(c1)N(C)C(=O)CC(c1ccccc1)=N2	-8	nt	-14	i	3	1	13	-5
CCN(CC)c1ccc(/C=N/NC(=O)Cc2cccs2)cc1	-6	nt	10	i	0	4	-5	-2
CCOC(=O)[C@H]1[C@H]2COc3ccc(Cl)cc3[C@@H]2N2C(=O)CN(Cc3ccc(Cl)cc3)C(=O)[C@@]12C	nt	-24	-2	nt	0	-1	-7	nt
Cc1cccc(NC(=O)Cn2c(=O)n(C)c3ccccc32)c1	3	nt	-10	i	-1	-1	-15	2
Cc1occc1C(=O)N1CCN(C(=O)C2CCCO2)CC1 (configuration not stated)	-4	nt	-16	i	-2	0	nt	3
Cc1cccc(NC(=S)Nc2ccccn2)c1C	-11	-6	nt	i	6	1	nt	-3
c1ccc2c(c1)CSc1sccc1C2=C1CCNCC1	1	nt	nt	i	-13	-15	2	-2
CCNC(=O)C1(C)CCCN(CC(=O)c2ccccc2OC)C1 (configuration not stated)	nt	-18	-19	nt	-2	1	nt	nt
CCc1nnc(NC(=O)CCC(=O)N2CCN(Cc3cc(Cl)ccc3OC)CC2)s1	1	nt	-17	i	12	8	-2	-2
CC(=O)Nc1ccc(NC(=O)C(C)OC(=O)CCCN=C2NS(=O)(=O)c3ccccc32)cc1 (configuration not stated)	nt	nt	-18	i	3	6	-8	nt
O=C(Cn1ncc2c3ccccc3n(Cc3ccccc3)c2c1=O)NCc1ccco1	-12	5	nt	i	-2	-6	2	-6
N#Cc1c(N)n(-c2cccc(C(=O)O)c2)c2nc3ccccc3nc12	?	-8	-4	i	-66	5	-3	?
COc1cccc(C2C3=C(N=c4s/c(=C\c5ccc(OCC(=O)O)cc5)c(=O)n42)c2ccccc2CC3)c1 (configuration not stated)	62	nt	nt	i	nt	nt	22	18	eIF4H inh retest=-5;PABP FP inh retest=7
COc1ccc(C(=O)NC(=S)NNC(=O)COc2ccccc2)cc1	10	4	nt	i	3	1	26	5
CCOC(=O)c1cc2c(=O)n3ccccc3nc2n(C(C)C)c1=NC(=O)c1c(-c2c(F)cccc2Cl)noc1C	0	38	nt	i	-7	-6	63	-10
CC1=CC(C)(C)Nc2ccccc21	6	nt	-11	i	-3&-1	5&3	-12&5	-5
CN(C)CCCN1C(=O)c2oc3ccc(F)cc3c(=O)c2C1c1cccnc1 (configuration not stated)	4	2	-5	i	-7	-1	-5	6
CC(=O)N1CCC(N(CCCOC(C)C)C(=O)Nc2ccc(C)c(C)c2)CC1	-2	-5	4	i	1	1	-7	0
COc1ccc(/C=N/n2c(SC)nnc(C(C)(C)C)c2=O)cc1OC	-6	nt	8	i	5	0	-11	0
Cc1cc(OCC(=O)NCc2cccnc2)c2c(C)cc(=O)oc2c1	-7	-1	-21	i	2	1	-14	7
O=S(=O)(NCC1CC1)c1cc(Cl)cc(Cl)c1	-18	-42	-16	i	3	4	-12	7
CC(C)NC(=O)CSc1nncn1-c1ccccc1	-2	-25	-10	i	2	-4	-7	-6
O=C(CN(Cc1cccs1)C(=O)CCC(=O)Nc1nccs1)NCc1ccccc1	-8	nt	-16	i	2	-1	-3	-6
COc1cc(CN2CCC(C(=O)N3CCN(c4ccccc4F)CC3)CC2)cc(OC)c1O	-1	-5	-13	i	-6	0	nt	14
CCOc1cc(C2C(C#N)=C(N)OC3CCCC(=O)C32)ccc1OCCN1CCOCC1 (configuration not stated)	3	nt	-15	i	0	1	-10	2
CC(C)(C)OC(=O)N1CCC(NC(=O)c2nc[nH]c2C(=O)NCc2ccccc2)CC1	nt	-44	-9	nt	-13	1	8	nt
Cc1nc(N2CCN(S(=O)(=O)c3ccccc3)CC2)c2cc(-c3ccccc3)sc2n1	-14	nt	-11	i	1	0	-2	-6
CC(/C=C1\SC(=S)N(CCC(=O)Nc2nc(C)cs2)C1=O)=C\c1ccccc1	-5	1	-11	i	6	6	12	1
O=C(CSc1cccc2cccc(Cl)c12)OCC(=O)N1CCN(C(=O)c2ccco2)CC1	8	-39	nt	i	-2	-4	-17	3
CC(C)N(Cc1ccccc1)C(=O)c1cccs1	-7	11	-12	i	1	3	nt	1
O=C(CCNS(=O)(=O)c1ccccc1)N1CCCCCC1	3	-8	-18	i	0	0	-11	-2
Cc1ccccc1NC1=C(Cl)C(=O)OC1OC(=O)c1ccccc1C (configuration not stated)	-12	1	nt	i	-8	-7	-7	1
CCc1ccc(NC(=O)COC(=O)CCC2CCCC2)cc1	nt	nt	7	nt	-3	1	-12	nt
O=C(O)c1ccc(CN(c2ccccc2)S(=O)(=O)c2ccccc2)cc1	-12	-6	-20	i	0	4	-15	-2
O=S(=O)(NCCSc1nnc(-c2ccco2)n1-c1ccccc1)c1ccccc1	-2	nt	0	i	-4	2	3	3
N#Cc1ccccc1S(=O)(=O)N1CCN(C(=O)CCc2ccccc2)CC1	nt	8	3	nt	-3	0	nt	nt
C/C(=N\NC(=S)NCCc1ccccc1)c1ccc(O)cc1O	1	23	-23	i	-3	1	nt	-2
COc1ccc(N(CC(=O)NCCSCc2ccco2)S(=O)(=O)c2ccccc2)cc1	-7	22	nt	i	-3	-2	9	-2
CCOC(=O)c1cc(CC)sc1NC(=O)c1cc(OC)c(OC)c(OC)c1	-1	-24	-5	i	-4	-9	21	-2
